# From PubChem BioAssay
# VDR inh = blocks the human vitamin D receptor. Potency, µM, inactives show max response, negative = inhibition, most hits filed as inhibitors. VDR-SRC2-3 peptide fluorescence polarization, 2 h. 400,000 tested, 0.93% active. P11473. AID 504847; active means well fitted inhibition curve with a large enough effect; inconclusive means small, poorly fitted or top-dose-only effect, or another doubt; inactive means no such curve, though single readings can be large or run the other way; further: series mostly up to about 120 µM
# Target sequence (P11473 whole entry, looked up): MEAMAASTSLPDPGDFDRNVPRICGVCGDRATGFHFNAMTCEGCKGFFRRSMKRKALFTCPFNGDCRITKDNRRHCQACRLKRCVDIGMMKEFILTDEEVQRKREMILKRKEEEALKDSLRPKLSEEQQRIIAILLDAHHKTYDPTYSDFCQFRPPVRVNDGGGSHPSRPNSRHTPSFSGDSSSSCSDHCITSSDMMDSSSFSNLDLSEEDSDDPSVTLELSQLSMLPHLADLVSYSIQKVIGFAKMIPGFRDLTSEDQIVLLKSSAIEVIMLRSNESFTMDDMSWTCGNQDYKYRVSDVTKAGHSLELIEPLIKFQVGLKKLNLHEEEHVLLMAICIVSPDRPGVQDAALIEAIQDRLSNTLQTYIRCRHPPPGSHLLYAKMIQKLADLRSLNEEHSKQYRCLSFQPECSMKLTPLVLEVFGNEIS
#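 VDR–SRC2-3 interaction, FP format. Cmpds 23 nl via pintool, brief spin, 2 h ambient incubation.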
# Numbers without * were called inactive; ? = inconclusive. On the % scale 0 is the no-effect control and ±100 the full control effect; potency means the concentration at half of the fitted maximal effect. Some of the compounds tested. The share of hits here may be higher or lower than overall.
structure | VDR inh
O=C(O)CSc1nnc(Cn2cnc3ccccc32)n1CCc1ccccc1 | -14%
CCOc1ccccc1NC(=O)C1=C(C)NC(=O)NC1c1cccs1 (configuration not stated) | 1%
C=CCNC(=O)c1ccc(N(Cc2ccccc2)S(C)(=O)=O)cc1 | 9%
COc1ccc(N(C)C(=O)c2cnc(N3CCN(c4ncccn4)CC3)c3ccccc23)cc1 | -8%
COc1ccccc1-c1nnc(SCC(=O)c2ccc(C3CCCCC3)cc2)n1Cc1ccco1 | -20%
CCS(=O)(=O)N1CCN(Cc2c[nH]c3ccccc23)CC1 | -19%
CCCCCn1c(=N)c(S(=O)(=O)c2ccc(Cl)cc2)cc2c(=O)n3cccc(C)c3nc21 | -7%
Cc1cc(C)cc(OCCCCCNCCO)c1 | -9%
O=C(c1ccco1)N1CCN(CC(O)Cn2c3ccccc3c3ccccc32)CC1 (configuration not stated) | -1%
CC(=O)c1ccc(N2CCN(C(=O)C3CCCN3S(=O)(=O)c3cccc4nsnc34)CC2)cc1 (configuration not stated) | 17%
CCC(c1nnnn1Cc1ccccc1)N(Cc1ccco1)Cc1cc2cc(OC)ccc2[nH]c1=O (configuration not stated) | -5%
O=c1oc2ccc(F)cc2cc1-c1nc(-c2cccs2)no1 | 0%
CC(C)c1ccc(NC(=S)N2CCN(C)CC2)cc1 | 1%
Cc1ccc2oc(-c3ccc(NC(=O)c4cccnc4)cc3)nc2c1 | 2%
Cc1cc(NC(=O)c2cc(-c3ccc(F)cc3)on2)nn1Cc1ccc(Cl)cc1 | -22%
CCN(Cc1cnn(C)c1)C(=O)C1CCC(=O)N(CCc2ccc(OC)cc2)C1 (configuration not stated) | -12%
O=[N+]([O-])c1ccc(S(=O)(=O)N2CCSC2c2ccco2)cc1 (configuration not stated) | 79µM*
O=C(O)C1CCCCC1C(=O)Nc1cccc2ccccc12 (configuration not stated) | 1%
O=C(NC(NC(=S)Nc1ccc(Cl)cc1Cl)C(Cl)(Cl)Cl)c1cccc([N+](=O)[O-])c1 (configuration not stated) | 4%
COc1ccc(C(=O)NC2CCN(CC(=O)NCc3cccc(OC)c3)CC2)cc1 | 0%
CCOc1ccc(CN(C)C(=O)NNC(=O)c2ccc(C)cc2)cc1OC | 2%
CCN(CC)CCCNC(=O)c1ccc(OCC(=O)Nc2ccccc2C(F)(F)F)c(OC)c1 | 1%
C#CCO[C@@H]1C[C@H](n2cnc3c(=O)[nH]c(NC(=O)C(C)C)nc32)O[C@@H]1CO | 3%
CCOc1ccc(C(=O)NCC(=O)N2CCCC2)cc1 | 21%
CCCCN(C)C1CCN(C(=S)Nc2ccc(OC)cc2)CC1 | -8%

# VDR inh: entries above that show a hit
structure | VDR inh
O=[N+]([O-])c1ccc(S(=O)(=O)N2CCSC2c2ccco2)cc1 (configuration not stated) | 79µM*

# Back to the main list with the 2 entries that preceded the break.
structure | VDR inh
CCOc1ccc(C(=O)NCC(=O)N2CCCC2)cc1 | 21%
CCCCN(C)C1CCN(C(=S)Nc2ccc(OC)cc2)CC1 | -8%
Cc1ccc(NC(=O)c2ccc(S(=O)(=O)NCc3cccnc3)cc2)c(C)c1 | -3%
OC(Cn1cncn1)c1ccc(Cl)cc1 (configuration not stated) | 4%
Nc1cc(=O)nc(SCC(=O)N(C2CCCCC2)C2CCCCC2)n1-c1ccccc1 | -5%
CCc1ccccc1NC(=S)N(CCN1CCCCC1)Cc1ccco1 | 5%
CCN(CC(=O)Nc1c(F)cccc1F)C(=O)C1CC1C (configuration not stated) | 0%
CCc1cccc(NC(=O)CSc2ncc3c(n2)-c2ccc(Cl)cc2N(Cc2ccccc2)S3(=O)=O)c1 | 2%
CCCCCOc1c(Cl)cc(C(=O)N(Cc2ccc(C)o2)C2CCS(=O)(=O)C2)cc1Cl (configuration not stated) | -4%
Cc1nc2c3cc(F)ccc3n(Cc3ccccc3)c2s1 | 50µM*
COc1cc(/C=N/NC(=O)CC23CC4CC(CC(C4)C2)C3)cc(Br)c1OCC(=O)N(C)C | -3%
CC(C)[C@H](NC(=O)c1ccc(C(C)(C)C)cc1)C(=O)Nc1nnc(C2CC2)s1 | -2%
CCN(CC)S(=O)(=O)c1ccc(Cl)c(C(=O)Nc2nncs2)c1 | 4%
O=C(Cn1ncc2c([nH]c3ccccc32)c1=O)N1CCN(c2ccccn2)CC1 | -25%
O=C(Nc1ncc(Cc2cccc(Cl)c2)s1)C1CCCO1 (configuration not stated) | -2%
CCCN(CCC)S(=O)(=O)c1ccc(NC(=O)C2CCCO2)cc1 (configuration not stated) | -10%
CC(C)n1nc(C(=O)NCc2ccc3c(c2)OCO3)c2ccccc2c1=O | -5%
COC(=O)c1ccc(NC(=O)Nc2ccc3c(c2)nc(C)n3C)cc1 | 24%
CC1=C(c2ccc(C(C)C)cc2)S(=O)(=O)N=C1N1CCC(C(=O)NCc2ccc(C)o2)CC1 | 15%
CC(Sc1nc(-c2ccccc2)cc(=O)[nH]1)C(=O)O (configuration not stated) | 0%
CC(C)(C)OC(=O)NCCCCCNC(=O)c1[nH]cnc1C(=O)N[C@@H](Cc1ccccc1)C(=O)OCc1ccccc1 | -10%
CCOC(=O)Cc1csc(NC(=O)/C=C/c2cccc(Br)c2)n1 | 0%
CC(=O)NCCc1cc2ccc(C)cc2[nH]c1=O | -1%
O=C(NCCn1cccn1)C1CCC(=O)N(CCc2ccc(Cl)cc2)C1 (configuration not stated) | -11%
O=C(Cc1cccs1)Nc1ccc(F)c(F)c1 | -18%
CCn1nc(NC(=O)CC(C)C)c2cc3ccc(C)cc3nc21 | -10%
CCC(=O)NC1CC(=O)N(c2ccc3c(c2)OCCO3)C1 (configuration not stated) | 12%
CCC1(CC)NC(=O)N(Cc2nc3ccccc3s2)C1=O | 5%
Cc1c(C(=O)N(Cc2ccc(N(C)C)cc2)Cc2ccco2)oc2cc(Br)ccc12 | 11%
O=C(CS(=O)(=O)c1ccccc1)N(CCCN1CCOCC1)c1nc2c(F)cccc2s1 | 1%
COc1ccccc1CNCC(=O)Nc1ccc(N(C)C)cc1 | -28%
COC(C/C=C/C(=O)[C@@H](C)OCc1ccccc1)OC | ?
O=C(Cc1ccccc1)Nc1sc2c(c1C(=O)Nc1cccc(Cl)c1)CCCCC2 | -5%
CCC(=O)NNC(=O)CSc1nnc(-c2ccccc2)c(-c2ccccc2)n1 | 3%
CCC(NC(=O)C1CCC1)c1ccccc1 (configuration not stated) | 5%
COc1cc(OC)c(C(=O)NC2CCCc3ccccc32)cc1OC (configuration not stated) | -16%
CCOc1ccccc1C(=O)NCC(=O)NCCCSc1ccccc1 | 2%
CC(=O)/C(CN1CCCCC1)=N\O | -5%
Cc1ccc(NS(=O)(=O)c2ccc(CCC(=O)NC3CC3)cc2)cc1 | -2%
O=C(Cn1c(=O)c2cc(Cl)ccc2n2nncc12)Nc1ccccc1 | -26%
Cc1ccc(S(=O)(=O)N2C[C@@H]3CCCC[C@@H]3[C@@H](C)[C@H]2CC(=O)c2ccccc2)cc1 | -6%
Cn1c(-c2cc(Br)ccc2O)n[nH]c1=S | 1%
CCCCNC(=O)CCCN1C(=O)c2ccccc2Sc2ncccc21 | 2%
Cn1cc(C(=O)N2CCc3ccccc3C2)c(=O)c2cc(S(=O)(=O)N3CCOCC3)ccc21 | 4%
CC(C)(C)OC(=O)N1CCC(c2c(C(=O)NC3CCCCC3)cnn2-c2cccc(Cl)c2)CC1 | 7%
O=C(NCc1cccc(C(F)(F)F)c1)c1ccc2c(c1)OCO2 | -13%
COc1cc(C(=O)N(Cc2ccc(N(C)C)cc2)C2CCS(=O)(=O)C2)cc(OC)c1OC (configuration not stated) | -8%
C/C(=N\NC(=O)CC1N=C(Cc2ccccc2)NNC1=O)c1ccncc1 (configuration not stated) | -13%
CN(Cc1ccccc1)S(=O)(=O)c1ccc(Cl)c(C(=O)O)c1 | 5%
CCOc1ccc(/C(O)=C2/C(=O)C(=O)N(CC3CCCO3)C2c2ccc(C)o2)cc1 (configuration not stated) | 10%
CC(=O)N(c1nc(CCl)cs1)c1cccc(C)c1C | 9%
C/C(=N\N=C(N)N)c1cccc([N+](=O)[O-])c1 | -14%

# Next part.
structure | VDR inh
CCCCn1c(=O)n(CC(=O)NCc2ccc(C)cc2)c(=O)c2c1nc(CO)n2CCC | 2%
Cc1occc1C(=O)Nc1ccc(Br)cc1F | -1%
O=C(c1ccccc1Oc1ccccc1)N1CCN(c2ccccc2F)CC1 | 4%
CCCc1nn(-c2cc(Cl)ccc2OC)c2c1C(=O)CC(C)(C)C2 | ?
COc1ccc(CNC(=O)C2(CC3CC(c4ccccc4)=NO3)CCN(C(=O)OC(C)(C)C)CC2)cc1 (configuration not stated) | -5%
O=C(O)c1ccc(S(=O)(=O)N2CCc3ccccc3C2)cc1 | -3%
CCC(CC)C(=O)Nc1cccc(C(=O)N2CCCC2)c1 | -10%
CSCCC(NC(=O)COc1ccccc1)C(=O)OCCOc1ccc(C)cc1 (configuration not stated) | 3%
Cc1occc1C(=O)Nc1ccccc1C(=O)O | -15%
Cc1ccc(NC(=O)Cc2csc(C)n2)c(C)c1 | -11%
S=c1[nH]nc2nnc3ccccc3n12 | -12%
CCOC(=O)Nc1ccc(C(=O)/C=C/c2ccccc2)cc1 | ?
COc1ccccc1CNC(=O)CN1C(=O)NC(c2ccccc2)(c2ccccc2)C1=O | 4%
COc1cc(OC)c(OC)cc1CN(C)CC1CCCN(CCc2ccccc2F)C1 (configuration not stated) | -19%
Cc1c(C(=O)O)oc2c1C(=O)CC(C)(C)C2 | 2%
C[C@H](CO)N1C[C@H](C)[C@@H](CN(C)Cc2ccccc2)Oc2c(NS(=O)(=O)c3ccccc3)cccc2C1=O | -4%
Cc1ccc2nsnc2c1S(=O)(=O)N(CCO)Cc1cc2cc3c(cc2[nH]c1=O)OCCO3 | -7%
Cc1cn(C2CCCCO2)c(=O)[nH]c1=O (configuration not stated) | 7%
CC1(C)CNC(=O)c2sc(NC(=O)c3ccccc3)nc2C1 | -6%
COc1ccc(-c2csc(NC3OC(=O)c4c3ccc(OC)c4OC)n2)cc1OC (configuration not stated) | -4%
CCOC(=O)C1=C(C)NC(C)=C(C(=O)OC)[C@@H]1c1cccc([N+](=O)[O-])c1 | ?
COc1ccc(C2=NN(C(C#N)c3ccc(OC)cc3)C(c3ccccc3)C2)cc1 (configuration not stated) | -14%
COc1cc(S(=O)(=O)n2cnc3ccccc32)ccc1Br | -7%
CCN(CC)c1ccc(C=Nc2ccccc2)c(O)c1 | -17%
N#CCSc1ccccc1NC(=O)CN1C(=O)C2CC=CCC2C1=O (configuration not stated) | 11%

# Three compounds out of the list above, arranged by the number in VDR inh, falling:
structure | VDR inh
COc1ccccc1CNC(=O)CN1C(=O)NC(c2ccccc2)(c2ccccc2)C1=O | 4%
CSCCC(NC(=O)COc1ccccc1)C(=O)OCCOc1ccc(C)cc1 (configuration not stated) | 3%
COc1ccc(C2=NN(C(C#N)c3ccc(OC)cc3)C(c3ccccc3)C2)cc1 (configuration not stated) | -14%

# The results go on:
structure | VDR inh
O=C1C(=Cc2ccc(Br)o2)C(=O)c2ccccc21 | 1%
C[N+]1(CC#CC(O)(c2ccccc2)c2ccccc2)CCCC1 | -9%
CC/C(=N\NC(=O)c1ccc(-c2ccccc2)cc1)C12CC3CC(CC(C3)C1)C2 | 1%
COc1ccccc1CNC(=O)CCC(=O)Nc1nnc(C)s1 | -5%
Cc1ccc(-c2nnc(SCC(=O)N3CCCC3)o2)cc1 | -11%
CCN(CC)C(=O)CSc1nc2c(sc(=S)n2-c2ccc(C)cc2C)c(=O)[nH]1 | -3%
CCOC(=O)c1ccc(N2C(=O)CC(N3CCN(C(=O)c4ccco4)CC3)C2=O)cc1 (configuration not stated) | -4%
C/C(CC(=O)NCc1ccccc1Cl)=N/NC(=O)c1ccccn1 | -1%
O=C(Nc1cc(S(=O)(=O)N2CCOCC2)ccc1N1CCOCC1)c1cc(=O)[nH]c2ccccc12 | 14%
CCCNC1=C(C)C(=O)CC1 | -2%
CCOc1ccc(N(CC(=O)Nc2ccccc2C(=O)NCc2ccco2)S(C)(=O)=O)cc1 | 5%
COc1cc(-c2cc(C(=O)NCCc3ccc(S(N)(=O)=O)cc3)c3ccccc3n2)cc(OC)c1OC | 10%
Cc1ccc(-n2c(C)cc(C(=S)N3CCOCC3)c2C)cc1C | -14%
O=S(=O)(Nc1ccccc1F)c1ccc2nsnc2c1 | 1%
CCN(CC)C1=CC(=[N+]2CCCC2)CC(C)(C)C1 | -2%
CC(C)c1nnc(NC(=O)CCC(=O)N2CCN(c3ccc(Cl)cc3)CC2)s1 | -3%
O=C(CN1c2cccc3cccc(c23)S1(=O)=O)Nc1ccc(F)c(F)c1F | -4%
O=C1N[C@@H](c2ccccc2)COC(=O)[C@H](Cc2ccc(F)cc2)C/C=C\C[C@H]1CC(=O)N(CCO)Cc1ccccc1 | -2%
CCN(CC)CCNc1nc2c(c(=O)n(C)c(=O)n2C)n1C/C=C(/C)Cl | -21%
O=C(CN1C(=O)S/C(=C\c2ccccc2)C1=O)NNC(=O)c1ccccc1O | 2%
Cc1ccc2c(ccc(=S)n2C)c1 | 5%
COc1ccc(CCNCc2ccccc2N2CCCC2)cc1 | 12%
Cc1cnn(C(=S)NCc2ccc(Cl)cc2)c1 | ?
O=C(CCNC(=O)c1ccco1)Nc1ccc(OC(F)F)c(Cl)c1 | -12%
COCCNC(=O)C(=O)NCC1OCCN1S(=O)(=O)c1cc(F)ccc1F (configuration not stated) | 10%
Cc1cc(C(C)(C)C)cc(C)c1C(=O)O | -21%
CCC(=O)Nc1cc(-c2nn(C)c(=O)c3ccccc23)ccc1N1CCOCC1 | -8%

# Copied from the list:
# VDR inh, CCN(CC)CCNc1nc2c(c(=O)n(C)c(=O)n2C)n1C/C=C(/C)Cl = -21%
# VDR inh, O=C1C(=Cc2ccc(Br)o2)C(=O)c2ccccc21 = 1%
